MT1-MMP act inh = blockers of MT1-MMP proenzyme processing, primary screen, HT1080 RFP-PRO-GFP cells, GFP/RFP fluorescence; GFP/RFP ratio fluorescence, overnight; percent of plate control window, DMSO zero; GFP/RFP ratio change, % at 20 µM; AID 651647, 2012; 360,000 tested, 0.061% active;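 active means GFP/RFP ratio change of at least 30% with cell ATP level not reduced by more than half and red fluorescence within 50% of control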; further: strong numbers were not always called active
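Assay system: HT1080 RFP-PRO-GFP cells. Benchmarks: DMSO vehicle wells and RFP-L50D-GFP reporter cell wells. Times: overnight cell settling, then overnight compound exposure, 37 °C, 5% CO2. Compound: 20 µM single dose, 1% DMSO. Read-out basis: GFP/RFP fluorescence ratio.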
eIF4H FP inh = human eIF4H binding inhibitors, primary screen, translation initiation inhibitor project, biochemical, uHTS, fluorescence polarization; Eukaryotic translation initiation factor 4H (Homo sapiens), Q15056; eIF4H fluorescence polarization binding assay; 290,000 tested, 0.94% active; inhibition, % at 35 µM; AID 2012, 2009;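 active means 50% or more with normal probe brightness, or confirmed in later tests; inconclusive means above 50% with abnormal brightness, or retests that disagree; inactive means below 50% or failed in later tests; about a fifth of its hits are not listed in these tables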;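 further: calls also rest on retests at 20 µM and on dose response follow-up; 0% = protein and probe with vehicle and 100% = probe without protein; strong numbers were not always called active; many hits fall short of the cut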
Env fusion inh = inhibitors of HIV-1 Env-driven cell-cell fusion, primary screen, HeLa-JRFL effector, CEM21 target cells, luciferase. inhibition, % at 12.3 µM. 360,000 tested, 1.1% active;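 active means mean replicate inhibition score of at least 50 and every replicate individually at or above 50; inconclusive means only one of the two criteria met; inactive means mean below 50 and not all replicates reaching 50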;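 further: 0% = plate neutral controls and 100% = maraviroc near 300 nM; one replicate is shown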
Rce1 inh = yeast Rce1p protease inhibitors, primary screen, biochemical, fluorescence, cell-free homogeneous. CAAX prenyl protease 2 (Saccharomyces cerevisiae (strain ATCC 204508 / S288c)), Q03530. yeast membranes, quenched prenylated peptide cleavage fluorescence. AID 2563, 2010. 290,000 tested, 0.27% active. calls only;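 active means fall in fluorescence gain of 50% or more versus controls, with final raw signal at or below 3038400; inconclusive means same 50% fall but final raw signal above 3038400; inactive means fall in fluorescence gain under 50%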;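 further: plate controls were neutral control wells for no effect and wells lacking membranes for full effect; tested at 10 µM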
Target sequence (Q03530 whole entry, looked up): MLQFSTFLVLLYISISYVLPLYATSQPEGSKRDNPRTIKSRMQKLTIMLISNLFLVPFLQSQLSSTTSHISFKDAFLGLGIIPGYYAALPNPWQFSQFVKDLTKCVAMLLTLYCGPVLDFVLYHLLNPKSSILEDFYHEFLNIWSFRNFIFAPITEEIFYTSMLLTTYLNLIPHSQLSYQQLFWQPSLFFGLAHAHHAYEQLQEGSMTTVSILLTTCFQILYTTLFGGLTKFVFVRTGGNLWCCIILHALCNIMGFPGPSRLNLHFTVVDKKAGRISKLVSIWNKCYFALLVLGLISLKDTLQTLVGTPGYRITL
Yeast UUG start = modulators of yeast start codon fidelity, primary screen, whole organism, S. cerevisiae, single point, plate reader; S. cerevisiae UUG-firefly luciferase reporter, luminescence/redox ratio; activity score, % at 18.7 µM; 350,000 tested, 0.13% active; AID 602363, 2012;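 active means replicate mean at a twofold rise or more, about +100% in these data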;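 further: firefly luciferase made from a UUG start codon reports start codon fidelity; reporter light over untreated wells divided by growth signal over untreated wells; some hits fall short of that in this replicate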
CSC inhib = cancer stem cell viability inhibitors, primary screen, luminescence; cancer stem cell-like cells viability; inhibition, % at 7.5 µM; 300,000 tested, 1.1% active;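 active means mean at 75% or more and at least half the replicates too; inconclusive means mean and replicates disagree; tested in HMLE shEcad cells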;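 further: 0% = median of negative and 100% = median of positive control wells; the first replicate is given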
PABP FP inh = PABP poly(A) RNA binding inhibitors, primary screen, biochemical, fluorescence polarization, uHTS; Polyadenylate-binding protein 1 (Homo sapiens), P11940; 290,000 tested, 1% active; AID 2014, 2009; inhibition, % at 35 µM;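 active means 50% or more with normal probe brightness, or confirmed in later tests; inconclusive means above 50% with abnormal brightness, or retests that disagree; inactive means below 50% or failed in later tests; about a fifth of its hits are not listed in these tables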;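 further: calls also rest on retests at 20 µM and on dose response follow-up; controls were probe without protein and protein plus probe with vehicle; some compounds called inactive have numbers as strong as hits; many hits fall short of the cut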
Target sequence (P11940 whole entry, looked up): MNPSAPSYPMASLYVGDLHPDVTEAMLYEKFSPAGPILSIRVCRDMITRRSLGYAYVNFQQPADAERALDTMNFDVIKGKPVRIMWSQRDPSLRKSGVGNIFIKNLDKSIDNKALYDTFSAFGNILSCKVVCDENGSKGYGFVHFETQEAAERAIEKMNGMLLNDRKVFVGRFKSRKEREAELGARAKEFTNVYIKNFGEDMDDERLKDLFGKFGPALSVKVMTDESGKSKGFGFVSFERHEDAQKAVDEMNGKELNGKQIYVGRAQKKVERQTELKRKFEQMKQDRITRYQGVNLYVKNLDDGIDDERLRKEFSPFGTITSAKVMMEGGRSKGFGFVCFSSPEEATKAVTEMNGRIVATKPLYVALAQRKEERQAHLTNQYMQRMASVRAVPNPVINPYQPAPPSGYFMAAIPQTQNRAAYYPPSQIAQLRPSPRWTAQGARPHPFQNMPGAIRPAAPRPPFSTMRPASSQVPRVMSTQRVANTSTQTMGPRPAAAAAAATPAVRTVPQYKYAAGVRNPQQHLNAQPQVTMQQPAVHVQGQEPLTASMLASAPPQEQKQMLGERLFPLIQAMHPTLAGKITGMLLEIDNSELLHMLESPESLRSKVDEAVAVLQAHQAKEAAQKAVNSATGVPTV
eIF4H FP inh retest = second read-out of eIF4H FP inh, no call of its own (marks repeat the call); inhibition, %; compound at 20 µM; confirmation average;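 mean of two retest wells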
PABP FP inh retest = second read-out of PABP FP inh, no call of its own (marks repeat the call); inhibition, %; compound at 20 µM; confirmation repeats;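 mean of two retest wells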
MT1-MMP act inh RFP = further read-out of MT1-MMP act inh, marked with its call; RFP signal change, %; measured here: RFP expression control read;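 0 = vehicle wells; hits needed this value within 50% of zero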
Numbers without * were called inactive; i = inactive; ? = inconclusive; . = not tested or not shown. Only part of the results is shown; the hit share may differ from the screen's.

SMILES	MT1-MMP act inh	MT1-MMP act inh RFP	eIF4H FP inh	Env fusion inh	Rce1 inh	Yeast UUG start	CSC inhib	PABP FP inh	others
NC(=O)C1CCN(C(=O)c2cccc(S(=O)(=O)N3CCc4ccccc4C3)c2)CC1	1	2	-7	8	i	.	-6	2
CN1C(=O)Cn2c1nc1ccccc12	1	1	-8	.	i	-16	-10	0
Fc1ccc(-c2nc3c(-c4ccc(F)cc4)cnn3cc2CCN2CCOCC2)cc1	0	-2	-8	5	i	-9	-4	-6
NC(=O)C1(N2CCCCC2)CCN(C(=O)CSc2nc(C(F)(F)F)cc(=O)[nH]2)CC1	-1	7	4	.	i	-9	-9	10
Cc1ccc2c(cnn2C(=O)CCC(=O)NC2CCCC2)c1	4	7	4	-9	i	-20	-5	-2
COc1ccc(C2C(C#N)=C(N)Oc3cc(C)n(CCN4CCOCC4)c(=O)c32)cc1OC (stereo not drawn)	0	1	-4	.	i	-8	.	-14
Cc1ccc(C(=O)Nc2ccccc2Oc2ccccc2)cc1[N+](=O)[O-]	1	-4	-2	14	i	-12	21	2
Cc1cc(/C=C2\SC(=S)NC2=O)c(C)n1C	-32	16	46	.	i	-4	.	17
COc1ccc(C(=O)N2CCC(C(=O)Nc3ccc4c(c3)OCO4)CC2)cc1	3	10	-6	3	i	.	-10	44
CSCC[C@H](NC(=O)[C@@H]1Cc2ccccc2CN1)C(=O)Nc1ccc2c(c1)OCCO2	-1	5	-2	3	i	-40	-5	0
COc1cc2c(C#CCCCO)c(-c3ccsc3)oc(=O)c2cc1OC	-4	-3	.	-46	.	39	10	.
COCCCNC(=S)NNC(=O)c1ccc2c(c1)OCO2	-1	3	-8	.	i	-6	-28	10
Nc1c(C(=O)Nc2ccc(F)cc2)sc2nc(-c3ccco3)ccc12	-14	3	99*	-28	i	-21	-8	91*
CCCCOC(=O)Nc1cccc(C(C)=O)c1	-3	-1	-1	-29	i	-13	-3	-6
CCOc1ccc(N)c(SSc2cc(OCC)ccc2N)c1	6	3	2	-8	i	-19	-3	12
Oc1c(Cl)cc(Cl)cc1C=Nc1cc(C(F)(F)F)ccc1N1CCc2ccccc2C1	2	-6	8	-210	i	-17	47	13
O=C(Cc1ccccc1)NNC(=S)Nc1ccc(Cl)cc1	0	1	10	-6	i	-32	0	-6
O=C(Nc1ccc(Cl)cc1)C1CCCN(c2cnccn2)C1 (stereo not drawn)	-3	3	-1	-11	i	-11	13	7
Cc1cccc(N2CCN(CC(O)COc3ccc(Cl)cc3)CC2)c1 (stereo not drawn)	1	-1	5	10	i	-10	4	0
Cc1nnsc1SC(C)C(=O)O (stereo not drawn)	-5	-4	-11	-51	.	-9	-14	-1
COc1ccc(OC)c(-n2c(SCC(=O)Nc3cc(C)on3)nnc2-c2c[nH]c3ccccc23)c1	5	-1	-13	-23	i	-16	-5	1
C=CCN(CC=C)C(=S)NC(=O)c1ccc(C)c(Br)c1	7	3	7	-11	i	.	28	5
NS(=O)(=O)c1ccc(CNC(=O)CCCSc2ccccc2)cc1	-2	3	-2	11	.	.	-7	6
O=C(Cc1cccs1)N1CCN(S(=O)(=O)c2ccccc2)CC1	-8	1	-8	-3	i	-21	-8	1
O=[N+]([O-])C(/C=C(/Cl)[N+](=O)[O-])=C(N1CCCCC1)N1CCCCC1	13	0	?	6	i	.	-18	?
COc1ccc(CC(=O)OCCN(C)C)cc1	1	7	96	6	i	-13	5	4	eIF4H FP inh retest=-3;PABP FP inh retest=7
COc1ccc(Br)cc1/C=N/Nc1cccc(C(=O)O)c1	2	3	-8	-34	i	.	4	-22
O=C(COC(=O)c1ccc(O)cc1O)NC1CCCCCC1	-5	-20	.	-9	.	-34	.	.
Cc1ccc(-c2cc(C(=O)N/N=C/c3ccc(F)cc3)n[nH]2)o1	-1	-5	-10	-1	i	-6	21	-2
COc1ccc(NC(=O)c2ccccc2NC(=O)C2CCCO2)cc1 (stereo not drawn)	1	0	1	.	i	-25	.	-1
c1ccc(Cn2nnnc2CN2CCN(c3ncccn3)CC2)cc1	3	3	-7	-58	i	-8	-6	7
Cc1ccc2c(n1)sc1c(-c3ccccc3)c(C#N)c(N)nc12	3	-2	3	-75	i	-14	-9	-4
CN(C)C(CNC(=O)c1cccc(C#N)c1)c1ccco1 (stereo not drawn)	2	7	8	4	i	-16	-5	-17
Fc1ccc(F)c(NC2=NCCCCC2)c1	-5	-2	-6	0	i	5	.	4
OCC(O)CN1CCCC1 (stereo not drawn)	0	-1	-6	-2	i	-3	-2	-5
COc1ccc(NC(=O)C2C3CCC(C3)C2C(=O)O)cc1OC (stereo not drawn)	-1	2	2	-15	i	-18	-14	5

Some of these compounds in order of length of the SMILES, descending:
SMILES	MT1-MMP act inh	MT1-MMP act inh RFP	eIF4H FP inh	Env fusion inh	Rce1 inh	Yeast UUG start	CSC inhib	PABP FP inh	others
O=[N+]([O-])C(/C=C(/Cl)[N+](=O)[O-])=C(N1CCCCC1)N1CCCCC1	13	0	?	6	i	.	-18	?
Cc1ccc(-c2cc(C(=O)N/N=C/c3ccc(F)cc3)n[nH]2)o1	-1	-5	-10	-1	i	-6	21	-2
Cc1ccc2c(n1)sc1c(-c3ccccc3)c(C#N)c(N)nc12	3	-2	3	-75	i	-14	-9	-4
COc1ccc(Br)cc1/C=N/Nc1cccc(C(=O)O)c1	2	3	-8	-34	i	.	4	-22
Fc1ccc(F)c(NC2=NCCCCC2)c1	-5	-2	-6	0	i	5	.	4

More entries follow:
SMILES	MT1-MMP act inh	MT1-MMP act inh RFP	eIF4H FP inh	Env fusion inh	Rce1 inh	Yeast UUG start	CSC inhib	PABP FP inh	others
CC1CCCC(NS(=O)(=O)c2ccc3c(c2)OCCO3)C1C (stereo not drawn)	-2	-4	0	.	i	1	-3	-5
COCc1[nH]nc2c1C(c1cc(OC)c(O)c(OC)c1)C(C#N)=C(N)O2 (stereo not drawn)	-8	4	-7	-51	i	.	6	-7
C=CCC(=O)N1CCC(n2nccc2NC(=O)CCOc2ccccc2)CC1	1	1	-8	-295	i	-1	-1	13
COc1ccc(NC(=O)CCNC(=O)Cn2ccc3ccccc3c2=O)cc1Cl	3	1	-4	10	i	-17	.	4
Cc1cccc(OCC(=O)NCCNC(=O)c2cccnc2)c1	3	2	-5	-6	i	-9	-3	-13
COc1ccc(CCN(C)C(=O)CSc2nc3ncc(Cl)cc3[nH]2)cc1OC	2	2	8	-7	i	.	3	1
COC(=O)c1c(NC(=O)CN2C(=O)C(=O)N(CC(C)C)C2=O)sc2c1CCCCC2	-2	3	6	9	i	-10	-2	-7
CN(Cc1ccccc1)CC(O)COc1ccc(CNCCCOc2cccnc2)cc1 (stereo not drawn)	6	7	3	4	i	.	17	35
COc1cc(CC(=O)Nc2cc(S(C)(=O)=O)ccc2Cl)cc(OC)c1OC	0	-2	5	8	i	-17	-14	7
O=C(Cc1ccsc1)NNC(=O)c1ccccc1Cl	-2	-1	.	5	i	.	-6	.
Cc1cc(-c2ccccc2)n(-c2ccc(C(=O)N3CCN(c4ncccn4)CC3)cc2)n1	10	-2	4	-36	i	16	8	4
COC(=O)C[C@H]1C[C@H]2c3cc(NC(=O)Nc4ccc(F)cc4)ccc3O[C@H]2[C@@H](CO)O1	4	3	.	12	.	-4	.	.
S=c1[nH]nc(CSCCOc2ccc(Cl)cc2Cl)o1	0	-1	0	2	i	-36	14	-6
CSCC[C@H](NS(=O)(=O)c1ccc(C)cc1)C(=O)N1CCC(C(=O)N[C@@H](Cc2ccccc2)C(=O)O)CC1	-2	0	4	.	i	-2	-4	11
O=S(CC(O)(c1ccccc1)c1ccccc1)CC(O)(c1ccccc1)c1ccccc1	-6	-5	.	-2	.	-9	.	.
CCc1cc2c(C)cc(C)cc2nc1SCC(=O)Nc1cc(C)on1	2	3	-3	27	i	-15	-3	-3
Cc1cc(NC(=O)CSc2nc3c(c(-c4cccnc4)c2C#N)CCC3)no1	7	4	-14	.	i	-22	-9	-7
O=[N+]([O-])c1ccc(N2CCCCC2)cc1	2	0	-3	-7	i	-10	-11	-2
O=C(O)C1CCCN1S(=O)(=O)c1ccccc1 (stereo not drawn)	5	1	-7	-71	i	-26	4	-8
C[C@H]1CN([C@@H](C)CO)C(=O)c2cc(NS(=O)(=O)c3ccc(F)cc3)ccc2O[C@H]1CN(C)S(=O)(=O)c1cn(C)cn1	-3	4	.	6	.	2	-6	.
COCCC1CCCCN1C(=O)c1cc(COc2ccc(C)nc2)on1 (stereo not drawn)	-4	-23	6	35	i	-12	10	-5
CSc1nc(-c2ccccc2)cn1-c1ccc(NC(C)=O)cc1	-3	-2	-4	-19	i	.	7	-2
COc1cc2c(cc1OC)CN(C(=O)c1ccc(OC)c([N+](=O)[O-])c1)CC2	2	1	9	4	i	.	-2	-6
OC(COCCOc1ccc(Br)cc1)CN1CCN(Cc2ccccc2)CC1 (stereo not drawn)	-3	-7	-4	-1	i	-4	15	8
Cc1oc2cc3oc(=O)c(CC(=O)NCCCC(=O)O)c(C)c3cc2c1C	4	2	-4	18	i	-5	2	-5
Cc1ccc(F)c(S(=O)(=O)NC(=O)C2(C)CCN2C(=O)c2ccccc2)c1 (stereo not drawn)	2	4	.	-8	.	-18	.	.
COc1ccc(NC(=S)NCCN2CCC(C)CC2)cc1Cl	0	1	-4	-19	i	.	15	11
COc1ccc2c(c1)c1ncn(CCc3ccccc3)c(=O)c1n2C	3	-5	-11	-31	i	-1	74	-4
COc1ccccc1CN1CC(C(=O)NCc2ncccc2C)CCC1=O (stereo not drawn)	2	4	-12	-12	i	-20	-4	-3
CN(C)S(=O)(=O)c1ccc(NC(=O)COC(=O)c2n[nH]c3ccccc23)cc1	1	-18	-3	.	i	.	-5	6
O=C(CC12CC3CC(CC(C3)C1)C2)Nc1ccccc1N1CCOCC1	0	4	-10	14	i	8	16	-14
CC1C(=O)N2CCCc3cc(NC(=O)C(=O)NCc4cccnc4)cc1c32 (stereo not drawn)	7	11	.	7	i	-9	2	.
Cc1cc(-c2ccccc2)c2c3c(c(-c4ccccc4)n2n1)c(=O)n(C)c(=O)n3C	-201	7	?	.	i	-13	-5	?
CS(=O)(=O)N(CC(=O)Nc1cccc(F)c1)Cc1ccccc1	1	-1	6	.	i	-14	-5	-8
c1cnc(-c2noc(CN3CCN(C4C5CC6CC(C5)CC4C6)CC3)n2)cn1 (stereo not drawn)	2	-3	-5	1	i	.	37	-7
Cc1c2cnn(CC(=O)NCCN3CCOCC3)c(=O)c2c(C)n1Cc1ccc(F)cc1	0	6	2	.	i	3	.	-3
O=C(CCOc1ccccc1)Nc1ccnn1C1CCN(Cc2ccc(O)cc2)CC1	-1	3	-8	6	.	-8	-8	-13
COc1ccc2c(c1)cc(C)c1nnc(SCC(=O)N3CCN(C(=O)c4ccco4)CC3)n12	.	.	-9	.	i	.	-1	3
